Compound activity: PubChem, ICCB-Longwood Screening Facility, Harvard Medical School
BasE inh: BasE siderophore enzyme inhibitors, primary screen, biochemical, Acinetobacter baumannii ATCC 17978, fluorescence polarization | 84,000 compounds, 0.1% hits | inhibition, % (concentration not given with the values) | purified BasE, fluorescence polarization binding displacement | AID 485350, 2010;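 active = both replicates above 25% with normal brightness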;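 also: 0% = negative plate control signal and 100% = positive plate control signal; stock transfer was 100 nL into about 30 µL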
KSHV LANA nucl: inhibitors of KSHV LANA-nucleosome binding, primary screen, biochemical, fluorescence polarization, FITC-LANA1-23, chicken nucleosomes; FITC-LANA1-23 / chicken nucleosome fluorescence polarization; active compounds read low; z-score (test concentration not listed); 51,000 compounds, 0.3% hits;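 active = both repeat wells score below -2 in polarization z-score versus plate sample wells, excluding overly bright wells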;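 also: 100 nL library stock added to about 30 µL; numbers are from one replicate; some results filed as inactive read as strong as hits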
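Test system: purified chicken nucleosomes with FITC-labelled LANA N-terminal peptide (1-23); Input: 240 nM purified chicken nucleosomes (480 nM peptide binding sites), final; Medium: TEN-BT buffer, pH 7.5; Timing: 10–45 min, room temperature; Technique: fluorescence polarization, 480 nm excitation, 535 nm parallel and perpendicular emission; Replication: duplicates.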
An asterisk follows results filed as active; / = no result given. Only part of the results is shown (hit frequency here may not be typical).

SMILES | BasE inh | KSHV LANA nucl
O=C(CC(C(=O)O)c1c[nH]c2ccccc12)c1ccccc1 (configuration not stated) | 2.5 | 0.46
c1ccc(-c2nc3sccn3c2COc2ncnc3ccccc23)cc1 | -0.9 | /
CCOc1ccc(S(=O)(=O)N2CCCCC2C)c2ccccc12 (configuration not stated) | -0.3 | -0.49
CCN(CC)c1ccc(C2Nc3ccccc3-c3cc(C)nn32)c(O)c1 (configuration not stated) | 0.9 | -0.47
O=C(O)c1ccc(CN2CCCC2=O)cc1 | 3.1 | /
CN(C)C(=O)CSc1ncnc2ccccc12 | 0.2 | /
FC(F)(F)c1cc(-c2cccs2)n[nH]1 | -1.9 | 1.1
COc1ccccc1OCCCn1cc(C#N)c2ccccc21 | 1.9 | -1.7
COC(=O)c1c(N)n(-c2ccc(N3CCOCC3)cc2)c2nc3ccccc3nc12 | -1.4 | /
Cc1cc(=O)n2c(C)csc2c1C#N | -4.0 | /
CC(SCC(=O)Nc1nc(-c2ccccc2)cs1)C(=O)O (configuration not stated) | -1.3 | /
CCOC(=O)C1CCCN(C(=O)c2cc(-c3ccc(OC)c(OC)c3)no2)C1 (configuration not stated) | 0.3 | -1.7
Cn1nnc2cc(C(=O)N(CCO)c3ccccc3)ccc21 | -1.0 | -0.84
CC1CCc2nn(CC(=O)N3CCN(C(=O)c4ccco4)CC3)cc2C1 (configuration not stated) | -0.8 | -0.73
N/C(=N\O)c1cn(CCOc2ccccc2Cl)c2ccccc12 | -0.1 | /
Cc1nc(NCC2CCCO2)c2nnn(Cc3c(F)cccc3Cl)c2n1 (configuration not stated) | 2.5 | -0.49
Cc1noc(C)c1S(=O)(=O)N1Cc2ccccc2CC1C(=O)O (configuration not stated) | 2.4 | 0.7
COc1ccccc1C1N=C(c2ccc3c(c2)OCO3)CC(c2ccccc2O)N1 (configuration not stated) | 0.2 | 0.73
Cc1nc2ccccc2c(=O)n1NC(=O)c1c(O)c2c(n(CC(C)C)c1=O)CCCC2 | -1.5 | 0.063
NC(=O)Nn1c(CCC(=O)O)ccc1-c1ccc(Cl)cc1 | 1.0 | -1.5
Cc1ccccc1-n1c(SCc2cccc(C#N)c2)nnc1-c1cc2occc2n1C | 3.3 | 0.086
COc1ccc(S(=O)(=O)N2CCc3ccccc32)cc1C(=O)N1CCC(C)CC1 | -0.1 | /
COc1ccnc2cc(Cl)ccc12 | 2.4 | -0.42
CCCc1cc(=O)[nH]c(N/N=C/C=C\c2ccccc2)n1 | -0.6 | -0.41
O=S(=O)(c1cccs1)N1CCN(c2ccccc2Cl)CC1 | -1.8 | 0.17

Five of these compounds in another layout.
| SMILES | BasE inh | KSHV LANA nucl |
| --- | --- | --- |
| COc1ccnc2cc(Cl)ccc12 | 2.4 | -0.42 |
| Cn1nnc2cc(C(=O)N(CCO)c3ccccc3)ccc21 | -1.0 | -0.84 |
| Cc1ccccc1-n1c(SCc2cccc(C#N)c2)nnc1-c1cc2occc2n1C | 3.3 | 0.086 |
| CCOc1ccc(S(=O)(=O)N2CCCCC2C)c2ccccc12 (configuration not stated) | -0.3 | -0.49 |
| CC(SCC(=O)Nc1nc(-c2ccccc2)cs1)C(=O)O (configuration not stated) | -1.3 | / |

Back to the main list with the 3 entries that preceded the break.
SMILES | BasE inh | KSHV LANA nucl
COc1ccnc2cc(Cl)ccc12 | 2.4 | -0.42
CCCc1cc(=O)[nH]c(N/N=C/C=C\c2ccccc2)n1 | -0.6 | -0.41
O=S(=O)(c1cccs1)N1CCN(c2ccccc2Cl)CC1 | -1.8 | 0.17
CC(C)C(C#N)N1CCNCC1 (configuration not stated) | 3.2 | /
CCCc1ccccc1OCCNC(=O)c1cc(=O)n(C)c(=O)n1C | -0.5 | -0.45
OCCNC(=S)Nc1ccc(Oc2ccccc2)cc1 | 2.7 | -0.52
Cc1oc(N)c(S(=O)(=O)/C(C#N)=C/c2cc(Cl)cc(Cl)c2)c1C | -1.7 | /
N#CCN1CCC(c2cc(-c3ccc(Cl)cc3Cl)n[nH]2)CC1 | / | -0.36
CC1=[N+](C)c2cc(C(F)(F)F)ccc2C1(C)C | -3.2 | /
CCNC(=O)N(Cc1ccccc1)Cc1cccnc1 | 1.2 | /
CCN(CC)CC(=O)N1c2ccccc2NC(=O)CC1C (configuration not stated) | 0.8 | -0.51
COc1ccccc1CN=C(C)c1ccccc1O | -0.9 | 0.32
O=C(COC(=O)C1CCN(C(=O)c2ccc(Cl)cc2)CC1)NCc1ccco1 | 0.8 | /
CCc1ccccc1NC(=O)C1CCN(S(=O)(=O)c2c(C)noc2/C=C/c2ccco2)CC1 | -0.3 | 1.4
COc1ccc(/C=C2\N=C(SCC(=O)NCc3ccco3)N(c3cc(C)cc(C)c3)C2=O)cc1 | 0.4 | /
COc1cc(CNC(=O)Cn2c(=O)c3cccn3c3ccc(F)cc32)cc(OC)c1OC | 1.8 | 0.66
O=C(O)Cc1n[nH]c(=S)n1Cc1ccccc1 | -0.1 | /
Cc1ccccc1-c1noc2ncnc(NCCCO)c12 | -2.7 | /
CCCn1nnnc1NCc1cc(Cl)c(OCc2cccs2)c(OC)c1 | -2.1 | 0.075
S=C(N/N=C\c1ccn[nH]1)Nc1ccc(Cl)cc1 | 0.2 | 1
CCOC(=O)c1sc(NC(=S)Nc2ccc(N3CCOCC3)c3nonc23)c(C(=O)OCC)c1C | -1.0 | -0.7
Cc1ccc(CC(C#N)Sc2nnc(Cc3ccccc3)o2)cc1 (configuration not stated) | -1.5 | /
O=C(O)COc1ccc(-c2nnco2)cc1 | 2.1 | /
O=C(CSc1ncnc2ccccc12)NCCC1=CCCCC1 | -2.5 | /
O=C(NCC(=O)N1CCN(S(=O)(=O)c2ccc3c(c2)OCCCO3)CC1)c1ccccc1 | 2.2 | /
COC(=O)C1=C(C)N(Cc2ccccc2)C(=O)NC1c1ccccc1F (configuration not stated) | 1.4 | /
C=CCNC(=O)c1ccc2nc(-c3ccco3)c(-c3ccco3)nc2c1 | 5.7 | 2.4
CC1(C)C2CCC1(C)C(OCC[N+]1(C)CCOCC1)C2 (configuration not stated) | 0.0 | /

Quoted at random: 2 records from the list.
SMILES | BasE inh | KSHV LANA nucl
Cc1ccc(CC(C#N)Sc2nnc(Cc3ccccc3)o2)cc1 (configuration not stated) | -1.5 | /
N#CCN1CCC(c2cc(-c3ccc(Cl)cc3Cl)n[nH]2)CC1 | / | -0.36

New compounds follow
SMILES | BasE inh | KSHV LANA nucl
CCC12CN3CC(CC)(CN(C1)C3c1ccc(C(C)C)cc1)C2=O (configuration not stated) | 2.6 | /
N#C/C(=C(\O)c1ccco1)c1nc2ccccc2[nH]1 | 3.0 | -0.8
O=C(CN(CC1CCCO1)S(=O)(=O)c1ccc(S(=O)(=O)N2CCOCC2)cc1)Nc1ccccc1 (configuration not stated) | -1.2 | -1.6
Cc1cc(C)c2c3c(oc2n1)C(=O)N(c1cccc(C(F)(F)F)c1)CC(=O)N3 | 1.5 | -0.47
CCCCCCCCCCCCCCCCCCOC[C@H](COP(=O)([O-])OCC[N+](C)(C)C)OC(C)=O | -0.4 | -0.92
COc1ccc(S(=O)(=O)Nc2ccc(S(=O)(=O)N3CCCC3)cc2)cc1Cl | -1.6 | -0.24
COC(=O)c1cnc(Oc2c(Cl)cc(N)cc2Cl)cc1C(F)(F)F | 0.6 | /
CCOC(=O)CSc1nnc(CNc2ccc(F)cc2)o1 | -3.7 | -0.13
CC(=O)N(C)c1ccccc1C(=O)O | 0.5 | 0.38
C=CC(C)n1c(=O)c2c(nc3n2CCN3c2ccc(Cl)cc2)n(C)c1=O (configuration not stated) | 5.3 | 0.0045
Cc1c(C)n(Cc2ccc(F)cc2)c2ccc(C(=O)N3CCN(c4ncccn4)CC3)cc12 | -0.4 | 0.44
CC(C)(C)OC(=O)N1CCN(S(=O)(=O)c2ccc(N3C(=O)CC4(CCCC4)C3=O)c(Cl)c2)CC1 | -0.2 | 1
Cc1cc(C)c2nc(/N=C(\N)NC(=O)C(C)(C)C)nc(C)c2c1 | 3.0 | 0.24
O=C(c1csc(Nc2ccccc2Cl)n1)N1CCCC1 | -5.8 | 1.6
Cc1ccsc1C(=O)OCc1nc2sc3c(c2c(=O)[nH]1)CCCC3 | -0.2 | /
Cc1cc(C)nc(SC2=C(N3CCC(C)CC3)C(=O)N(Cc3ccccc3)C2=O)n1 | -2.4 | /
Cc1ccc2nc(NC(=O)Nc3ccccc3)sc2c1 | 3.3 | 0.17
CC(C)CNCC1COC2(CCCCC2)O1 (configuration not stated) | -0.2 | -0.58
Cc1nnsc1C(=O)NC(=O)Nc1cc(Cl)cc(Cl)c1 | -1.1 | /
CC(C)(CN1CCN(Cc2ccccc2)CC1)NS(=O)(=O)c1ccccc1 | 0.8 | /
CCOc1cc(S(=O)(=O)N2CCC(N3CCOCC3)CC2)c(OCC)cc1-n1cnnn1 | 0.4 | -0.033
O=C(O)CCn1cc(C=C2C(=O)NC(=O)NC2=O)c(-c2ccc(F)cc2)n1 | 1.9 | /
CCCS(=O)(=O)c1cnc(C2COc3ccccc3O2)nc1N (configuration not stated) | -0.8 | /
COC(=O)C1=CN(C)C=C(C(=O)OC)C1c1cccc(F)c1 | -0.2 | -0.91
CN(C)C(CNC(=O)c1cc2ccccc2cc1O)c1ccccc1 (configuration not stated) | -9.3 | /

Some values from the entries so far:
Cc1nnsc1C(=O)NC(=O)Nc1cc(Cl)cc(Cl)c1 in BasE inh shows -1.1
Cc1oc(N)c(S(=O)(=O)/C(C#N)=C/c2cc(Cl)cc(Cl)c2)c1C in BasE inh shows -1.7
Cc1c(C)n(Cc2ccc(F)cc2)c2ccc(C(=O)N3CCN(c4ncccn4)CC3)cc12 in BasE inh shows -0.4

(continued)
SMILES | BasE inh | KSHV LANA nucl
COc1c(Br)cc(Br)c2c1OCCO2 | -0.2 | 0.064
CCCc1noc2c1C1=NNC(=O)C1C(C)(C)C2 (configuration not stated) | -1.4 | -0.19
Cc1nn(-c2ccccc2)c(N)c1-c1ccc(Cl)cc1 | / | 0.42
N#Cc1ccc(Nc2ccccc2)c(N)c1 | 3.1 | -1.5
FC(F)(F)Oc1ccc(Nc2n[nH]c(=S)s2)cc1 | 1.9 | /
Cc1cc(OCC(=O)Nc2ccc3c(c2)OCCO3)cc(C)c1Cl | -1.6 | 0.89
CN(c1ccccc1C(=O)O)S(=O)(=O)c1ccc(F)cc1 | 2.2 | -0.65
CCn1c(=O)c(C(=O)CSc2nnc3ccccn23)c(N)n(Cc2ccccc2)c1=O | -1.1 | /
CCOc1ccccc1N(C)C(=O)c1cn(C)c(=O)c2ccccc12 | -3.2 | -0.037
O=C(O)CCC(=O)N1N=C(c2ccccc2)CC1c1ccccc1F (configuration not stated) | 1.4 | /
Cc1cc(NC(=O)Cn2cnc3c(oc4ccccc43)c2=O)no1 | -2.0 | -0.31
N#Cc1oc2ccccc2c1NC(=O)CSc1nnc(-c2ccccc2)n1Cc1ccco1 | -2.1 | /
COC(=O)Cc1csc(Nc2ccccc2)n1 | -0.9 | /
S=C1N(CN2CCOCC2)CCN1CN1CCOCC1 | -0.9 | 0.11
CCCn1c(=NC(=O)c2ccccc2)c(C#N)cc2c(=O)n3cccc(C)c3nc21 | 0.4 | /
CC1(C)CC2(CCO1)OC(=O)CC2C(=O)NCc1ccccc1 (configuration not stated) | -3.7 | /
COc1ccc(-c2nnc(SCC(C)C)o2)cc1 | 1.7 | /
N#Cc1ccc(S(=O)(=O)N2CCc3sccc3C2c2ccc(OC(F)(F)F)cc2)cc1 (configuration not stated) | / | 0.38
N#CCc1nc(C23CC4CC(CC(C4)C2)C3)cs1 | 0.4 | /
CN(C)c1ccc(C=NCC2(O)CCOC(C)(C)C2)cc1 (configuration not stated) | 2.7 | 1
O=C(O)CC(c1ccc(F)cc1)N1Cc2ccccc2C1=O (configuration not stated) | -0.8 | 0.34
CSc1ccc(NC(=O)C2CC(O)CN2C(=O)Nc2ccccc2)cc1 (configuration not stated) | -1.0 | -0.33
Cc1ccc(C(=O)NC2CC(C)(C)NC(C)(C)C2)cc1 | 1.0 | 0.0055
CCN(CC)c1ccc(C2NC(=O)NC(c3cc(C)n(-c4cc(C(=O)OC)cc(C(=O)OC)c4)c3C)=C2C#N)cc1 (configuration not stated) | -19 | /
CC(CNC(=O)CCc1nnc2ccc(N3CCCC3)nn12)c1ccccc1 (configuration not stated) | 0.6 | 0.97

(cont.)
SMILES | BasE inh | KSHV LANA nucl
CCN(CC)c1ccc(C(=O)N2CCCCC2C)cc1 (configuration not stated) | 1.5 | /
CC(=O)Nc1cccc(NC(C)=C(C#N)C#N)c1 | -1.1 | /
OCCN1CCN(C2=Cc3ccccc3C2)CC1 | 2.4 | /
O=C(c1ccc2c(c1)OCCO2)c1ccccc1Cl | -0.7 | /
CCC(=O)Nc1cccc(C)c1 | 2.5 | -0.29
COc1ccc(N(C)S(=O)(=O)c2cccc(C(=O)Nc3ccc(N4CCN(C)CC4)cc3C)c2)cc1 | 1.5 | /
O=C(O)CCC(=O)Nc1cccc(-c2nn(-c3ccccc3)cc2C(=O)O)c1 | 2.2 | /
COc1cc2nc(SCc3ccc(C#N)cc3)n3nc(CCn4c(C)nc5ccccc54)nc3c2cc1OC | 1.4 | 0.33
N#C/C(C(=O)NCCN1CCOCC1)=c1/s/c(=C/c2ccccn2)c(=O)n1-c1ccc(F)cc1 | 2.1 | /
